# MARV entry inh – qHTS for inhibitors of binding or entry into cells for Marburg Virus; Marburg virus pseudotyped entry inhibition, cell reporter; control for the full effect not named in the record; about a third of the inactives were read at about 46 µM; Potency, µM (series often up to 37.8 µM), for inactives: at the highest dose activity change, negative = inhibition, most hits filed as inhibitors; actives 1.8% (n = 300,000); active = well fitted inhibition curve with a large enough effect; inconclusive = small, poorly fitted or top-dose-only effect, or effect the other way; inactive = flat fitted curve, though single readings scatter; tested in HEK293 cells; about a fifth of its hits are not listed in these tables; note: % is set by controls: 0 for no effect and ±100 for the full control effect; luciferase read-out
# 2A StopGo – High Throughput Screening for Foot and Mouth Disease Virus Antivirals. AID 1159524, 2015. Potency, µM (titrated, usually from 57.9 µM), for inactives: at the top dose signal change, negative = less light. actives 1.2% (n = 410,000). human cells with a luciferase reporter of 2A StopGo recoding; control for the full effect not named in the record; active = well fitted falling curve with a large enough effect; inconclusive = small, poorly fitted or top-dose-only effect; inactive = no such curve, though single readings can be large or run the other way; tested in HEK293T cells; note: % is set by controls: 0 for no effect and ±100 for the full control effect; nearly all actives have a fitted effect of over 45% in size; luciferase light after 4 h
# NS1 function inh – qHTS Assay for Inhibitors of Influenza NS1 Protein Function; S. cerevisiae slowed by influenza A NS1, growth recovery by OD600; Potency, µM (doses to about 46.1 µM), without a hit: at the highest dose activity, positive = more growth; actives 0.4% (n = 270,000); AID 2326, 2010; note: actives are rising curves; nearly all actives have a fitted effect of over 50% in size
#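 S. cerevisiae expressing influenza A NS1, grown in glucose, washed, then diluted 1:100 into pH 6.0 -URA galactose medium with 23 nl compound. Growth recovery read as OD600; NS1-free strain serves as control.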
# Cruzain noTriton – qHTS Assay for Promiscuous and Specific Inhibitors of Cruzain (without detergent). actives 2.3% (n = 200,000). purified cruzain, Z-FR-AMC fluorescence, no detergent. Cruzipain (Trypanosoma cruzi), P25779. Potency, µM, inactives show max response, negative = inhibition, most hits filed as inhibitors; active = well fitted curve in the direction sought with a large enough effect; inconclusive = small, poorly fitted or top-dose-only effect, or another doubt; inactive = no such curve, though single readings can be large; an effect the other way counts as inactive or inconclusive;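 note: plate controls were enzyme without inhibitor for no effect and buffer without enzyme for full effect; nearly all actives have a fitted effect of over 40% in size; top concentration of the series not given in the record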
# Target sequence (P25779 123-467 limits assumed): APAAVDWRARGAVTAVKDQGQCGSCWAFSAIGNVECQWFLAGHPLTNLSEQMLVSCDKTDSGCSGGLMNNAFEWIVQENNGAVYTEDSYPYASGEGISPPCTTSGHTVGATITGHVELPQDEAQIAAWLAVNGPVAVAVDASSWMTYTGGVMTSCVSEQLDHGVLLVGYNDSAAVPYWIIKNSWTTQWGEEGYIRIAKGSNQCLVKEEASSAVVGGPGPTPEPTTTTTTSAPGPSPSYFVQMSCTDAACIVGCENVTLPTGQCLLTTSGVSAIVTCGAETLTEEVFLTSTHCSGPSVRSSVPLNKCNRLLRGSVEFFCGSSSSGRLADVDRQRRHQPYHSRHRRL
#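 Detergent-free condition (0.00005% Triton X-100) in acetate buffer pH 5.5 with DTT. 1.5 nM enzyme and compound were pre-mixed 15 min, then 2 uM Z-FR-AMC substrate added; reaction progress from fluorescence change between first and third reads (60 s).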
# SARS PLP yeast – qHTS of Yeast-based Assay for SARS-CoV PLP | S. cerevisiae expressing SARS-CoV PLpro, growth rescue; control for the full effect not named in the record | actives 0.19% (n = 330,000) | AID 485353, 2010 | Potency, µM (highest dose often 32.9 µM), for inactives: at the highest dose activity, positive = growth rescue; note: 0% is about no effect; nearly all actives have a fitted effect of over 55% in size; growth read by luminescence after 48 h
# Cruzain inh Det – qHTS Assay for Promiscuous and Specific Inhibitors of Cruzain (with detergent); Cruzipain (Trypanosoma cruzi), P25779; purified cruzain, Z-FR-AMC fluorescence, 0.01% Triton; Potency, µM, for inactives: max response, negative = inhibition, most hits filed as inhibitors; actives 0.43% (n = 200,000); active = well fitted curve in the direction sought with a large enough effect; inconclusive = small, poorly fitted or top-dose-only effect, or another doubt; inactive = no such curve, though single readings can be large; an effect the other way counts as inactive or inconclusive;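 note: plate controls were neutral wells for no effect and buffer without enzyme for full effect; nearly all actives have a fitted effect of over 40% in size; top concentration of the series not given in the record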
#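 Cysteine protease activity tested under reducing, mildly acidic conditions (100 mM sodium acetate pH 5.5, 5 mM DTT) plus 0.01% Triton X-100. Cruzain 1.5 nM; substrate Z-FR-AMC 2 uM; 15 min compound preincubation at room temperature.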
# RE007 growth inh – qHTS Assay for Inhibitors of the HIV-1 protein Vpr. AID 651644, 2012. Potency, µM (series often up to 92.2 µM), for inactives: top-dose activity change, negative = less growth. actives 0.21% (n = 360,000). S. pombe RE007 Vpr strain, BacTiter-Glo ATP luminescence, 24 h; control for the full effect not named in the record; active = well fitted falling curve with a large enough effect; inconclusive = small, poorly fitted or top-dose-only effect; inactive = no such curve, though single readings can be large or run the other way;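 note: % is set by controls: 0 for no effect and ±100 for the full control effect; nearly all actives have a fitted effect of over 50% in size; the assay follows cell death caused by Vpr and the record does not say whether a fall means rescue or toxicity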
#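 Fission yeast strain RE007, carrying one chromosomally integrated HIV-1 vpr copy, was seeded at OD 0.01 in PMG+AL medium with 23 nL pinned compound. After 24 h at 30 °C and 99% humidity, viability was read by BacTiter-Glo luminescence.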
# LASV entry inh – qHTS for Inhibitors of binding or entry into cells for Lassa Virus | Lassa virus pseudotype entry inhibition, cell reporter; control for the full effect not named in the record | Potency, µM (top dose mostly 37.9 µM), for inactives: at the highest dose activity change, negative = inhibition, usual class: inhibitors | actives 1.2% (n = 300,000); active means well fitted inhibition curve with a large enough effect; inconclusive means small, poorly fitted or top-dose-only effect, or effect the other way; inactive means flat fitted curve, though single readings scatter; tested in HEK293 cells; note: % is set by controls: 0 for no effect and ±100 for the full control effect; nearly all actives have a fitted effect of over 50% in size; luciferase read-out
# Active calls of the source: *; ? = inconclusive; · = not tested or not shown; & = joins results of further samples; [ ] = dose if it differs, or a comment. Unless noted, calls come from the whole dose curve; as a rule, active means well fitted rising curve with a large enough effect; inconclusive means small, poorly fitted or top-dose-only effect; inactive means no such curve, though single readings can be large or run the other way. Potency is the fitted concentration of half-maximal effect.
SMILES,MARV entry inh,2A StopGo,NS1 function inh,Cruzain noTriton,SARS PLP yeast,Cruzain inh Det,RE007 growth inh,LASV entry inh
Cc1cccc(OCc2nnc(SCC(=O)NC3CCCCC3)n2C)c1,26%[46.1 µM],-17%,3%,·,0%,·,-4%,?
CC(=O)Nc1ccc(C(=O)N/N=C/c2cccnc2)cc1,-1%,-21%,7%,-2%,1%,-2.7%,10%,5%
Cn1c(SCC(=O)c2ccc3c(c2)OCO3)nnc1-c1ccccn1,20%,17%,-4%,-1%,·,-5.6%,0%,7%
CC(C)n1nnnc1SCC(=O)Nc1ccccc1N1CCOCC1,27%,-9%,1%,12%,2%,3.4%,12%,?
CCOc1nnc(C)c2c(C)n(-c3cccc(Cl)c3)nc12,2%,-9%,14%,-2%,2%,1.5%,-4%,0%
CC1CCc2c(sc3nc(-c4cc5cc(Br)ccc5oc4=O)[nH]c(=O)c23)C1 (stereo not given),·,-2%,·,8%,·,-1.8%,·,3%[46.1 µM]
CCOC(=O)COn1c(=O)c(-c2ccc(OCC)cc2)[n+]([O-])c2ccccc21,·,27%,0%,·,-2%,·,1%,·
Cc1ccc(N(Cc2cccs2)C(=O)COc2cccc(C)c2)cc1,?,0%,·,6%,·,-8.0%,·,12%[46.1 µM]
CCCCc1c(O)cc(C)[nH]c1=O,-4%[46.1 µM],-8%,-3%,·,-1%,·,-1%,-4%
CCSc1nc(-c2cccnc2)ccc1C#N,-7%,-9%,-2%,6%,-9%,-3.3%,5%,-17%
CCOC(=O)c1ccc(CNC(=O)C2CCC(=O)N(Cc3cccc(OC)c3)C2)o1 (stereo not given),14%,-8%,1%,·,2%,·,13%,-2%
CCOC(=O)CNC(=O)CN1CCC(c2nc3ccccc3[nH]2)CC1,·,-15%,?,·,5%,·,-3%,·
COc1ccc(S(=O)(=O)N2CCCCCC2)cc1NC(=O)CN1C(=O)CNC1=O,0%,-8%,·,·,-8%,·,3%,-9%
Cc1ccc(NC(=O)c2ccco2)c(OCc2cc(=O)n3cc(C)sc3n2)c1,·,-18%,·,4%,·,1.4%,·,28%[46.1 µM]
COc1cccc(CN2C(=O)C(C)N(C(=O)c3ccccc3)c3ccccc32)c1 (stereo not given),10µM*,?,-5%,·,0%,·,39%,?
O=C(NCc1cccnc1)/C(=C/c1ccc(-c2cccc(C(F)(F)F)c2)o1)NC(=O)c1ccccc1,?,-21%,17%,?,6%,-12%,14%,?
O=C(c1ccccc1F)N1CCN(c2ccc([N+](=O)[O-])c3cccnc23)CC1,-8%[46.1 µM],?,-7%,·,0%,·,-22%,-3%
Cc1ccc(C(=O)NCCc2sc(C)nc2C)cc1,1%,-12%,-7%,?,27%,25µM*,-4%,7%
COc1ccc(C2CC(c3ccccc3)=NN2C(=O)COC(=O)c2nc3nccc(C)n3n2)cc1 (stereo not given),·,13%,5%,·,0%,·,-2%,·
CN(C)CCN1C(=O)c2cccc3cc([N+](=O)[O-])cc(c23)C1=O,0.32µM*,-22%,·,·,·,·,-12%,0.45µM*
O=C(COC(=O)c1n[nH]c(=O)c2ccccc12)Nc1ccccc1,-3%,-16%,·,·,-1%,·,-13%,?
O=C(CN(C(=O)c1nsc(Cl)c1Cl)c1cccc(F)c1)NC1CCCC1,-24%[46.1 µM],-9%,-8%,·,-2%,·,2%,18%
CC(C)(C)c1ccc(-c2ncccc2O)cc1,-1%[46.1 µM],21%,-40%,·,-5%,·,-25%,?
CC(=O)N1CCc2nc3sc(C(=O)c4ccc(F)cc4)c(N)c3c(C(F)(F)F)c2C1,-28%[46.1 µM],?,·,?,·,-9.8%,·,?
O=C(COC(=O)c1ccc([N+](=O)[O-])cc1)NC1CCCC1,·,-7%,-1%,·,0%,·,-1%,·
COc1cc(/C=N\NC(=O)CN2CCOCC2)ccc1OCC(=O)Nc1ccc(C)c(C)c1,0%,2%,-11%,15%,-2%,-3.8%,22%,2%
COc1ccc(/C=N/Nc2nc(-c3ccc(Cl)cc3)cc(C(F)(F)F)n2)c(OC)c1,25%,-6%,12%,?,6%,-5.2%,-19%,-4%
Cc1ccc(-c2nnc3c4ccccc4c(C)nn23)cc1NC(=O)c1ccccc1Cl,3%[46.1 µM],-6%,·,15%,·,0.2%,·,3%[46.1 µM]
Nc1cc(C(F)(F)F)ccc1C(=O)O,·,·,-125%,-13%,-14%,0.1%,·,·
Cc1ccc(N2CC(NC(=O)c3ccccc3Br)CC2=O)cc1 (stereo not given),·,-7%,·,?,·,-1.0%,·,8%[46.1 µM]
COC(=O)C1CSC(C(=O)OC)N1C(=O)Nc1ccc(Cl)c(Cl)c1 (stereo not given),4%[46.1 µM],-16%,-12%,5%,-4%,-5.8%,-12%,2%
Cc1ccc2c(c1)NC(=O)C(CC(=O)NCCN(C)C)O2 (stereo not given),·,-18%,-2%,-3%,-3%,-1.1%,4%,·
CCOC(=O)c1oc2ccc(S(=O)(=O)n3nc(-c4cc(OC)c(OC)c(OC)c4)cc3N)cc2c1C,1%&1%[46.1 µM],?,·,-5%,1%,-2.7%,-6%,-4%[46.1 µM]
O=C1CN(C(=O)COc2ccc(Cl)cc2Cl)C(c2ccc(F)cc2)c2cc(F)ccc2N1 (stereo not given),?,-19%,·,-14%,·,-6.8%,·,?
CC(C)(C)c1ccc(S(=O)(=O)N2CCCCC2C(=O)NCc2ccccn2)cc1 (stereo not given),0%,-18%,-2%,?,-1%,-1.2%,3%,·
O=C(O)CCC(=O)NNC(=O)COc1ccc2ccccc2c1Br,10%[46.1 µM],2%,0%,·,0%,·,16%,?
CCC(=O)N1CCc2cc(CNC(=O)Nc3ccccc3Cl)ccc21,·,-10%,·,?,·,-2.9%,·,8%[46.1 µM]
CCCCCCCC/C=C\CCCCCCCC(=O)NCc1ccc(O)c(OC)c1,-15%&-15%,0%,·,4%,·,-2.5%,·,?
CC(C)C(NC(=O)CN1C(=O)c2cccc3cccc1c23)C(C)C,·,-8%,15%,·,3%,·,2%,·
CC1CC(C)CN(CC(C)(C)NS(=O)(=O)c2ccc(Cl)cc2)C1 (stereo not given),?,0%,-2%,-17%,-8%,1.2%,-12%,19%
C=CCc1c(C)nc(N)[nH]c1=O,-3%,·,1%,-5%,-4%,-3.8%,0%,-29%
CC1CCN(C(=O)C2CCCN(S(C)(=O)=O)C2)CC1 (stereo not given),4%,·,-5%,-6%,1%,3.9%,-9%,3%
CCOC(=O)C(CCSC)NC(=O)CN (stereo not given),-16%,24%,6%,-9%,1%,2.2%,2%,-10%
CC1(C)CC(n2[nH]c(=O)c3c2NC(=O)CSC3c2ccc(F)cc2)CCO1 (stereo not given),-6%,-11%,-12%,-3%,-1%,6.3%,10%,12%
CCC/C(O)=C1\C(=O)CCCC1=NCCc1c(C)[nH]c2ccccc12,·,53%[activator],0%,·,-2%,·,-7%,·
O=C(OCC(=O)N1CCCc2ccccc21)c1cncc(Br)c1,2%,3%,-14%,4%,-7%,4.5%,-8%,·
O=C(O)c1cc(-n2cccc2)ccc1N1CCOCC1,8%,0%,6%,·,1%,·,22%,-6%
O=C(Nc1cccc2ccccc12)OCc1cncs1,?,17%,-4%,·,-3%,·,3%,?
O=C(Cn1cnc2ccccc21)N/N=C/c1ccccc1[N+](=O)[O-],6%,-9%,2%,2%,-7%,-2.5%,6%,5%
CCN1CCCCC(=N/O)/C(=N/O)CCCC1,·,-18%,10%&3%,-2%,1%,1.5%,5%,·
# (more compounds)
SMILES,MARV entry inh,2A StopGo,NS1 function inh,Cruzain noTriton,SARS PLP yeast,Cruzain inh Det,RE007 growth inh,LASV entry inh
COc1cc(/C=C2\CCc3ccccc3C2=O)cc(OC)c1OC,?,-27%,-14%,4%,-26%,-9.4%,-18%,?
C/C(CCc1ccco1)=N/NC(=O)CCC(=O)Nc1ccc(Br)cc1,?,-9%,9%,2%,22%,-0.8%,4%,2%[46.1 µM]
CCOC(=O)NC(=O)/C(C#N)=C\Nc1sccc1C(=O)OC,-9%[46.1 µM],?,9%,·,0%,·,1%,8%
O=[N+]([O-])c1ccc(NS(=O)(=O)c2cccc3cccnc23)cc1,·,76%[activator],9%,·,0%,·,13%,·
Cc1cc(C)cc(Oc2cc(NC(=O)c3cn(C)nc3C)cc([N+](=O)[O-])c2)c1,?,-22%,-8%,25%,3%,-15%,-12%,4%
COc1ccc(C2N(c3cccc(Cl)c3)C(=O)C3CCCN32)cc1 (stereo not given),·,-2%,-3%,5%,-8%,-0.6%,-17%,·
CN(C)CCN=Cc1c(O)n(Cc2ccccc2)c(=O)c2ccccc12,7%[46.1 µM],-7%,-5%,·,-3%,·,-20%,-6%
COc1cccc(CNC(=O)C(=O)N2CCC3(CC2)OCCN3S(=O)(=O)c2ccc(C)cc2)c1,-12%,5%,·,·,5%,·,7%,-40%[46.1 µM]
CCCCSc1nc2sc3c(c2c(=O)[nH]1)CCC3,1%,106%[activator],13%,?,-3%,2.7%,4%,-3%
Cc1ccc(C2=NS(=O)(=O)N(C)C(C(=O)NCc3ccccn3)=C2)cc1,·,0%,-1%,·,-4%,·,-5%,·
Cn1c(C(=O)OC(C(=O)NCc2ccco2)c2ccncc2)cc2sccc21 (stereo not given),-14%,-7%,0%,-6%,2%,1.2%,-1%,?
Cc1ccc2c(c1)N(CC(=O)NCc1cccc(Cl)c1)C(=O)c1cccnc1O2,·,-8%,·,7%,·,-6.8%,·,?
COc1cc(CN2CCCC(C(=O)c3sccc3C)C2)cc(OC)c1O (stereo not given),·,0%,-1%,·,-2%,·,-16%,·
CCCn1c(=N)c(C(=O)NC2CCCC2)cc2c(=O)n3cccc(C)c3nc21,-12%[46.1 µM],-12%&-2%,-7%,-16%,13%,?,-11%,-3%[46.1 µM]

# Assay outcomes as filed in PubChem.

# Rows were taken by chance. Share with any hit: about 4.6%.
